# Compound activity deposited in PubChem by National Center for Advancing Translational Sciences (NCATS).
# VACV Venus inh = qHTS for Stage-Specific Inhibitors of Vaccinia Orthopoxvirus: Venus Reporter Primary qHTS | Vaccinia virus Venus reporter expression, fluorescence | Potency, µM (doses to about 36.5 µM), without a hit: at the top dose activity change, negative = inhibition, most hits filed as inhibitors | 0.46% of 330,000 active | AID 720580, 2013; active means well fitted inhibition curve with a large enough effect; inconclusive means small, poorly fitted or top-dose-only effect; inactive means no such curve, though single readings can be large or run the other way; tested in A549 cells; note: nearly all actives have a fitted effect of over 30% in size; inactives centre near -10
# VACV mCherry inh = qHTS for Stage-Specific Inhibitors of Vaccinia Orthopoxvirus: mCherry Reporter Primary qHTS. Potency, µM (highest dose often 36.5 µM), inactives show top-dose activity change, negative = inhibition, usual class: inhibitors. AID 720579, 2013. Vaccinia virus mCherry reporter infection, fluorescence; about a quarter of the inactives have no number. 0.63% of 310,000 active; active = well fitted inhibition curve with a large enough effect; inconclusive = small, poorly fitted or top-dose-only effect; inactive = no such curve, though single readings can be large or run the other way; tested in A549 cells; note: nearly all actives have a fitted effect of over 35% in size; inactives centre near -10
# Starred values were filed as active, the others as inactive; i = inactive; u = inconclusive; x = no result given; & = joins results of further samples; [ ] = remark or other dose. % is set by controls: 0 for no effect and ±100 for the full control effect; potency is the fitted concentration of half-maximal effect. Compounds as they come; about 0.86% have a hit in one of these screens.
SMILES,VACV Venus inh,VACV mCherry inh
C=C(C)C1CC=C(CN2CC(C)OC(C)C2)CC1 (configuration not stated),-7%,x
O=C(NC1=NCCS1)c1ccc(Cl)s1,-12%,i
CNc1nc(SC)nc(N(C#N)CC(=O)OC)n1,-13%,-5%
O=C(Nc1ccccc1)c1cnc2n(c1=O)CCS2,-3%,15%
CCN(CC(=O)Nc1ccc(NC(C)=O)cc1)C(=O)COc1ccc(C(=O)c2ccccc2)cc1,-15%,-17%
COc1ncccc1-c1cnc2cccnn12,-6%,-8%
COc1cc(-c2nnc3n(CCc4ccccc4)c(=O)c4ccccc4n23)cc(OC)c1OC,-15%,i
N#Cc1ccc(Cl)cc1NC(=O)CSc1cccc[n+]1[O-],-9%,-11%
CCOc1ccccc1N1CCN(C(=O)CC(C)(C)C)CC1,1%,-14%
O=C(Cc1ccccc1)Nc1ccc(NC(=O)c2cccc(Cl)c2)cc1,-3%,-7%
CC(C)[C@H](NC(=O)c1ccccc1)C(=O)OCC(=O)NCc1ccc(F)cc1,3%,i
COc1ccc(-c2oc(=O)c3cc(OC)c(OC)cc3c2-c2cc(F)cc(OC)c2)cc1,-7%,i
CSc1ccc(CCNC(=O)C(C)n2nc(C)c3c(C)n(-c4ccccc4)nc3c2=O)cc1 (configuration not stated),-13%,-24%
Cc1ccc(NC(=O)C2CCCN(S(=O)(=O)c3cccc4nsnc34)C2)cc1C (configuration not stated),-5%,-18%
Cc1ccc(NC(=O)Cn2c(=O)n(CCC(C)C)c(=O)c3cccnc32)cc1C,-11%,-18%
C[C@@H]1CN([C@H](C)CO)C(=O)c2cc(NC(=O)Cc3cn(C)c4ccccc34)ccc2O[C@H]1CN(C)S(=O)(=O)c1ccc(F)cc1,u,-10%
CCCN(CC1CC1)C(=O)COC(=O)c1ccc(C)cc1O,-15%,-20%
Cc1ccc2[nH]c3c(c2c1)CN(C(=O)CN1CCN(Cc2ccc4c(c2)OCO4)CC1)CC3,u,x
COc1cccc(/C=C/c2nc(C#N)c(NCCN(C)C)o2)c1,-6%,-4%
CCOc1ccccc1-n1c(SCC(=O)N2CCCC2)nnc1-c1ccc(O)cc1,-13%,i
CCOC(=O)c1nn(-c2ccc(C)c(Cl)c2)c(=O)c(C#N)c1C,-2%,i
CC1CCCN(S(=O)(=O)c2ccc(C(=O)Nc3nnc(-c4ccco4)o3)cc2)C1 (configuration not stated),-30%,-14%
COc1cc2[nH]c(=O)n(Cc3ccc(C(=O)NC4CCCC4)cc3)c(=O)c2cc1OC,u,-20%
CC(C)(C)NC(=O)COc1ccc(CNCc2cccnc2)cc1,-6%,-17%
Cc1ccc(OCCn2cccc2/C=C2/C(=O)NC(=O)N(Cc3ccco3)C2=O)cc1,5%,-8%

# Continuation.
SMILES,VACV Venus inh,VACV mCherry inh
Cc1cc(Nc2cccc([N+](=O)[O-])c2)c2ccccc2n1,u,u
COc1ccc(NC(=O)Nc2ccc3c(c2)C(=O)N([C@H](C)CO)C[C@H](C)[C@@H](CN(C)C(=O)Nc2c(C)noc2C)O3)cc1,-10%,i
COc1cccc(C2=NOC(C(=O)Nc3cccnc3Cl)C2)c1OC (configuration not stated),-8%,-4%
Cc1cn(S(=O)(=O)c2cc(Br)ccc2Br)cn1,-2%,i
COc1ccc([C@@H]2C[C@H]3[C@@H](CN2S(=O)(=O)c2ccccc2)C(=O)C[C@@H](c2cccc4ccccc24)N3S(=O)(=O)c2ccc(C)cc2)cc1,-12%,i
N#Cc1c(-c2cccs2)cc(-c2cccs2)[nH]c1=O,5%[7.34 µM],i[7.34 µM]
O=C1CC=C2C3CC4N(CCC45c4ccccc4N1C25)CC3=CCO (configuration not stated),-14%,i
COc1cc(-c2ccc3oc(-c4ccsc4)cc3c2)cc(OC)c1OC,14µM*,u
O=C(Cn1cnc2c(NCc3ccccc3)ncnc21)NCc1nc2ccccc2[nH]1,-7%,i
Cc1cc(=O)[nH]c2nnc(SCc3ccccc3F)n12,-15%,i
COc1ccc(C(=O)NC(=S)N2CCN(c3ccccc3O)CC2)cc1,-23%,u
Cc1cc(C)c2oc(C(=O)NCCc3ccc(S(N)(=O)=O)cc3)cc(=O)c2c1,-10%&-4%,11%&3%
CCn1c(C)nc2cc(C(=O)N/N=C/c3ccc(OC)c(O)c3)ccc21,-4%,-12%
CCOC(=O)C1CCCN(C(=O)c2cc(C#N)cs2)CC1 (configuration not stated),3%,i
CCOC(=O)COc1ccc([N+](=O)[O-])cc1-c1ccnc2cc(-c3ccc(C)cc3)nn12,0%,-5%
COC(=O)C[C@H]1c2cc(F)ccc2S(=O)(=O)N1C(C)C,-8%,i
CC(=O)Nc1ccc(OCC(O)Cn2nc(C)nc2C)cc1 (configuration not stated),-10%,-13%
COc1ccccc1CNC(=O)CN1C(=O)COc2ccc(S(=O)(=O)N3CCCCC3)cc21,-4%,-1%
COc1cccc(NS(=O)(=O)c2cc3c4c(c2)CCC(=O)N4CCC3)c1,-17%,0%
Cc1ccc(-c2nc(NC(=O)CSc3ncn[nH]3)ns2)cc1,6%,-11%
COc1ccc(C(=O)NCCc2cn3ccc(C)cc3n2)cc1,0%,-3%
O=C1CCN(Cc2ccc(Br)cc2)CCN1[C@H](CO)Cc1ccccc1,-21%&-29%,-22%&-8%
CC(C)c1ccc(CN2CCC(C)(Oc3ccc(Cl)cc3)C2)cc1 (configuration not stated),-5%,24%
CCNC(=O)NC(=O)C(C)On1nnc2ccc(S(=O)(=O)N(CC)CC)cc21 (configuration not stated),2%,5%
O=C(O)CC/C(=N/NC(=O)c1cccs1)c1ccccc1,-24%,-25%

# Profiles as entered above. Screens in order: VACV Venus inh | VACV mCherry inh
# Shown for `Cc1ccc(NC(=O)C2CCCN(S(=O)(=O)c3cccc4nsnc34)C2)cc1C` (configuration not stated) = -5% | -18%
# Shown for `COc1ccc([C@@H]2C[C@H]3[C@@H](CN2S(=O)(=O)c2ccccc2)C(=O)C[C@@H](c2cccc4ccccc24)N3S(=O)(=O)c2ccc(C)cc2)cc1` = -12% | i
# Shown for `CCCN(CC1CC1)C(=O)COC(=O)c1ccc(C)cc1O` = -15% | -20%

# Carrying on.
SMILES,VACV Venus inh,VACV mCherry inh
CCCC(=O)Oc1ccc2[nH]c(C(=O)c3cc4ccccc4[nH]3)cc2c1,u,u
CCOC(=O)Cn1nc(C)c(NC(=O)CCc2ccc(OC)cc2)c1C,5%,i
Nc1nc(-c2cccnc2)nn1S(=O)(=O)c1ccccc1,-26%,i
O=C(COC(=O)C1=COCCO1)Nc1ccc(Br)cc1Br,3%,-12%
Cc1cccc(NC(=O)C2CCN(c3nnc(-n4c(C)ccc4C)s3)CC2)c1C,-10%,-12%
COC(=O)c1cc(NC(=O)c2nccnc2C(=O)O)cc(C(=O)OC)c1,-12%,-13%
O=C(NCc1cccs1)C(=O)NCC(c1ccco1)N1CCN(c2ccccc2F)CC1 (configuration not stated),-11%,-23%
COc1ccc(NC(=O)c2ccc3c(c2)c(C)c(C)n3Cc2ccc(F)cc2)cc1,-30%,-26%
CC(=O)Nc1ccc(NC(=O)c2ccc3c(c2)NC(=O)c2ccccc2S3)cc1,7%,-4%
CC(NC(=S)Nc1ccc(OC(F)F)cc1OC(F)F)C(C)(C)C (configuration not stated),-10%,-18%
O=C(Nc1ccc(N2CCCCC2)cc1)c1cccnc1,-14%,x
O=C1CCCc2[nH]c(=O)c(-c3nc(-c4cccc([N+](=O)[O-])c4)cs3)cc21,-21%,-20%
COc1ccc(OC)c(/C=C/C(=O)N2C(=O)c3cccc(N)c3C2=O)c1,-13%,-26%
COc1cc(OC)c(C2C=C(c3ccc(C)cc3)Nc3c(C(=O)Nc4ccccc4)cnn32)cc1OC (configuration not stated),-26%,-25%
CCC(C)(C)NC(=O)C(c1cccn1C)N(C(=O)Cn1nnc2ccccc21)c1ccccc1OC (configuration not stated),9%,x
O=C(c1ccc(-n2cncn2)c([N+](=O)[O-])c1)N1CCN(S(=O)(=O)c2cccc(F)c2)CC1,-10%,-20%
COc1ccc2oc(C(=O)NCc3cc(OC)c(OC)cc3OC)c(C)c2c1,-12%,i
COc1cc(CC(=O)Nc2nc(-c3ccc(F)c(F)c3)cs2)cc(OC)c1OC,15%,-3%
CC1CN(S(=O)(=O)c2ccc(NC(=O)CCN3C(=O)c4ccccc4C3=O)cc2)CC(C)O1 (configuration not stated),-6%,-8%
CCC(=O)Nc1nnc(-c2ccco2)o1,-4%,i
CCCSc1nc(C)c2cc(C)cc(C)c2n1,-18%,-20%
O=C(CSc1nc2ccccc2c(=O)n1CCCN1CCOCC1)Nc1ccc2c(c1)OCO2,-10%,-6%
CC1CCCCN1CCNC(=O)c1ccc(Cn2c(SCc3ccccc3)nc3cccnc32)cc1 (configuration not stated),-9%,-11%
COc1ccc2c(c1)CCc1c(C(=O)NCc3ccc(Cl)cc3)noc1-2,-4%,-9%
O=C(C[N+]12CCC(CC1)C(CO)C2)c1ccc(Br)cc1 (configuration not stated),29%,-8%

# Further structures.
SMILES,VACV Venus inh,VACV mCherry inh
CN1CCC(N(C)CC(=O)Nc2ccccc2N2CCOCC2)CC1,-14%,-22%
OC[C@@H]1CN(CCNc2ccccc2)C[C@H](n2cnc3c(NCc4ccncc4)ncnc32)O1,-22%,u
CC(=C1C(=O)c2ccccc2C1=O)N1CCC(C(N)=O)(N2CCCCC2)CC1,-5%,-6%
CC(C)NC(=O)CC(=O)N/N=C/c1ccc(Br)cc1,-16%,-17%
COc1cc2cc(CCOC(=O)c3ccc(F)cc3)oc(=O)c2cc1OC,-15%,i
CCOc1ccc(S(=O)(=O)NCc2ccccc2Cl)cc1C(N)=O,-12%&4%,28%&12%
CC[n+]1c(C)n(-c2ccccc2)c2ccc(NC(C)=O)cc21,-18%,-28%
CC(C)(C)[C@@H]1CCC(=O)N(CC[C@H](N=[N+]=[N-])c2ccccc2)CC1,-5%&-23%,i
CCOc1ccccc1NC(=O)COC(=O)C1CC1,-15%,-8%
C=CCn1c(SCC(=O)Nc2ccccc2C)nc2sc(C)c(C)c2c1=O,-19%,-25%
Oc1cccc(/C=N/N2CCN(c3ccccn3)CC2)c1,-13%,-28%
COc1cccc(CN(CCC(=O)O)Cc2cccc(OC)c2)c1,-11%,-5%
COc1ccc(-c2nc(-c3cccc([N+](=O)[O-])c3O)cc(=O)o2)cc1OC,9%,1%
CN(C)S(=O)(=O)c1ccc(C(=O)Nc2ccc(CN3CCCC3)cc2)cc1,-22%,x
CCOC(=O)C(/C=C(\C#N)C(=O)OCC)=C(/N)N1CCN(c2ccc(OC)cc2)CC1,u,x
CCc1cccc2c(C(=O)CSc3nnc(-c4ccncc4)n3C)c[nH]c12,-12%,0%
CC(C)Nc1ccccc1,-8%,i
COC(=O)c1sc(NC(=O)c2ccc(Cn3cc(Cl)cn3)o2)c(C#N)c1C,u,-15%
O=C(c1ccc2c(c1)N(Cc1cccc(Cl)c1)C(=O)c1ccccc1S2(=O)=O)N1CCCCCC1,-11%,-14%
O=C(COC(=O)CCCN1C(=O)c2cccc3cccc(c23)C1=O)Nc1cccc(C(F)(F)F)c1,-7%,i
COc1ccc(C(=O)C2CCCN(C(=O)c3c4c(nn3C)CCCC4)C2)cc1F (configuration not stated),-3%,i
Cc1cc(C(=O)CN2C(=O)NC3(CCCc4ccccc43)C2=O)c(C)n1Cc1ccccc1 (configuration not stated),-19%,x
C[C@H](CO)N1C[C@H](C)[C@@H](CN(C)CC2CCOCC2)Oc2cc(C#Cc3ccccc3F)ccc2S1(=O)=O,-28%,-22%
COC(=O)C1C2CCCCC1C(=O)O2 (configuration not stated),6%,-6%
O=C(COC(=O)CSCc1ccccc1)NCc1ccccc1,-12%,-7%

# Next compounds:
SMILES,VACV Venus inh,VACV mCherry inh
O=C(NCCSCc1ccco1)Nc1ccc(Cl)cc1,-14%,x
CCOC(=O)c1[nH]c(C)c(/C(O)=C2\C(=O)C(=O)N(CCCN3CCOCC3)C2c2cccnc2)c1C (configuration not stated),1%,-14%
CC1(C)OC(c2ccccc2)=C/C(=C/C=C2C(=O)NC(=S)NC2=O)O1,288%[activator],-13%
CN1C(=O)C2(N=c3ccccc3=N2)c2ccccc21,5%,3%
CCCN(C(=O)c1cc2c(=O)[nH]c3ccc(C)cc3c2s1)c1ccc(CC)cc1,1%,-15%
O=C(CSc1nnnn1-c1ccc2c(c1)OCCO2)Nc1nc2c(s1)CCCC2,-26%,-9%
O=C1C(Cl)=C(N2CCOCC2)C(=O)N1c1cccc(Cl)c1,2%,-17%
COc1ccccc1-c1ccc2c(c1)C(C)(Cc1ccc(Cl)cc1)C(=O)N2 (configuration not stated),-8%,-1%
Nc1nc(-c2ccco2)nn1C(=O)CCc1ccccc1,-23%,x
CCC(C)n1[nH]c(=O)c2c(C)cc(C)nc21 (configuration not stated),3%,-19%
O=C1C(=C2SCCCS2)CC/C1=C\c1ccc(F)cc1,-7%,-13%
CCOC(=O)NC(=S)Nc1ccc(C(C)(C)C)cc1Br,-28%,u
c1ccc(Sc2ncnc3ccccc23)cc1,-15%,u

# Filtered by structure, the entries above with a nitro group on carbon.
SMILES,VACV Venus inh,VACV mCherry inh
Cc1cc(Nc2cccc([N+](=O)[O-])c2)c2ccccc2n1,u,u
CCOC(=O)COc1ccc([N+](=O)[O-])cc1-c1ccnc2cc(-c3ccc(C)cc3)nn12,0%,-5%
O=C1CCCc2[nH]c(=O)c(-c3nc(-c4cccc([N+](=O)[O-])c4)cs3)cc21,-21%,-20%
O=C(c1ccc(-n2cncn2)c([N+](=O)[O-])c1)N1CCN(S(=O)(=O)c2cccc(F)c2)CC1,-10%,-20%
COc1ccc(-c2nc(-c3cccc([N+](=O)[O-])c3O)cc(=O)o2)cc1OC,9%,1%
